# Bioassay records (PubChem BioAssay)
# Vaccinia mCherry: qHTS for Stage-Specific Inhibitors of Vaccinia Orthopoxvirus: mCherry Reporter Primary qHTS | Vaccinia virus mCherry reporter infection, fluorescence; about a quarter of the inactives have no number | Potency, µM (series often up to 36.5 µM), for the others: top-dose activity change, negative = inhibition, most hits filed as inhibitors | 0.63% of 310,000 active; active = well fitted inhibition curve with a large enough effect; inconclusive = small, poorly fitted or top-dose-only effect; inactive = no such curve, though single readings can be large or run the other way; tested in A549 cells; note: nearly all actives have a fitted effect of over 35% in size; inactives centre near -10
# VACV Venus inh: qHTS for Stage-Specific Inhibitors of Vaccinia Orthopoxvirus: Venus Reporter Primary qHTS. Vaccinia virus Venus reporter expression, fluorescence. Potency, µM (doses to about 36.5 µM), for inactives: at the highest dose activity change, negative = inhibition, actives largely listed as inhibitors. 0.46% of 330,000 active; active means well fitted inhibition curve with a large enough effect; inconclusive means small, poorly fitted or top-dose-only effect; inactive means no such curve, though single readings can be large or run the other way; tested in A549 cells; note: nearly all actives have a fitted effect of over 30% in size; inactives centre near -10
# Active calls of the source: *; i = inactive; ? = inconclusive; / = no result given; & = joins results of further samples; [ ] = remark or other dose. % is set by controls: 0 for no effect and ±100 for the full control effect; potency is the fitted concentration of half-maximal effect.
# Values in the order – Vaccinia mCherry	VACV Venus inh
> Cc1cc2c(=O)n(CC(=O)NCC(=O)N3CCN(Cc4ccccc4)CC3)cnc2s1
  /	-4%
> O=C(C1COc2cc(S(=O)(=O)Nc3ccc(Cl)cc3)ccc2O1)N1CCCC1 (centres undefined)
  -14%	-13%
> CC1CCCC(C)N1C(=O)COC(=O)CNC(=O)c1sc2ccccc2c1Cl (centres undefined)
  -11%	-10%
> Cc1cc(Cl)ccc1NC(=O)CN(c1ccccc1Br)S(C)(=O)=O
  0%	-3%
> O=C(NC(=O)c1ccccc1O)c1ccc(C(F)(F)F)cc1
  20%	28%
> CCOc1ccc(C2=CC(c3cc(Br)ccc3F)n3ncnc3N2)cc1Cl (centres undefined)
  -11%	-11%
> COc1ccc(NC(=O)CN(C)C(=O)c2ccc3ccccc3c2)cc1
  i	-21%
> Cc1ccsc1C(=O)Nc1ccc(C(=O)O)cc1
  /	-9%
> O=C(NC(Cc1ccccc1)C(=O)O)/C(=C\c1ccccc1)NC(=O)c1ccco1 (centres undefined)
  -9%	-9%
> COc1ccc(-c2cnc(C(O)c3ccccc3)[nH]2)cc1 (centres undefined)
  11%	2%
> CN(C)S(=O)(=O)c1cc(NC(=O)CN2CCCc3ccccc32)ccc1Cl
  ?	?
> O=C(/C=C/c1ccco1)Nc1ccc2nn(-c3ccccc3)nc2c1
  ?	?
> COc1ccc(CC(=O)NCc2ccc(Cl)cc2)cc1S(=O)(=O)N1CCOCC1
  i	-14%
> OC(COc1ccccc1)CN1CCC(Cc2ccccc2)CC1 (centres undefined)
  -20%	-22%
> O=C(O)CNC(=S)N(Cc1ccccc1Cl)C1CCCCC1
  i	-10%
> CC(=O)Nc1cc(-c2ccccc2N(C)C)cn2c(-c3cccc(C(F)(F)F)c3)cnc12
  -8%	-11%
> FC(F)(F)COc1nc(N/N=C/c2cccnc2)nc(N2CCCCC2c2ccccn2)n1 (centres undefined)
  i	-10%
> CCC1CCCCN1C(=S)Nc1cccc(S(=O)(=O)N(C)C)c1 (centres undefined)
  -7%	-6%
> COc1ccc2c(c1)[nH]c1c(Cl)ncnc12
  -4%	-11%
> Cc1ccc(CNC(=O)c2c(-c3ccc(F)cc3F)noc2C)o1
  -15%	4%
> Cn1cccc1/C=N/N1CCN(c2ccccn2)CC1
  i	-5%
> COc1ccc(C)cc1S(=O)(=O)N(C)CC(=O)N1CCN(C)CC1
  -13%	-3%
> COc1ccc(CNC(=O)Cn2ncn3nc(-c4cccs4)cc3c2=O)cc1
  -6%	-10%
> CSCc1cc(N(C)c2ccccc2)nc(-c2ccccn2)n1
  -29%	?
> O=C(CCSc1ccc(Cl)cc1)N1CCCCCC1
  /	-16%
> Fc1ccc(C(NCCc2ccc(Cl)cc2)c2nnc(-c3ccccc3Cl)o2)cc1 (centres undefined)
  -3%	-5%
> CCCC(=O)Nn1cnc2c(c1=O)C1(CCCCC1)Cc1ccccc1-2
  -15%	-11%
> COc1ccc2c(c1)C/C(=C\c1ccc(N(C)C)cc1)C2=O
  -24%	48%[activator]
> CCC1=C2CC[C@H]3C(=O)N(CC(=O)OC)C(=O)[C@H]3[C@H]2[C@@]2(C)C(=NCC(=O)OC)OC(=O)N2C1=O
  -16%	-3%
> CCc1ccc(NC(=O)CN(c2ccc3c(c2)OCO3)S(=O)(=O)c2c(C)noc2C)cc1
  7%	-3%

# Grouped by structure: the entries above containing an NH in an aromatic ring.
# Values in the order – Vaccinia mCherry	VACV Venus inh
> COc1ccc(-c2cnc(C(O)c3ccccc3)[nH]2)cc1 (centres undefined)
  11%	2%
> COc1ccc2c(c1)[nH]c1c(Cl)ncnc12
  -4%	-11%

# Carrying on:
# Values in the order – Vaccinia mCherry	VACV Venus inh
> FC(F)(F)c1cccc(NC(=S)NCc2ccccn2)c1
  -13%	6%
> C(#CCN1CCOCC1)COC/C=C/c1ccccc1
  -7%	-10%
> CCOC(=O)C1=C(C)NC(=O)C1(NC(=O)c1cccnc1)C(F)(F)F (centres undefined)
  -1%	-1%
> CCCCNC(=O)C[C@@H]1C[C@@]2(C(=O)OCC)CCCC=C2N(Cc2ccccc2)C1=O
  ?	-21%
> CCOc1ccc(NC(=O)C(CC)n2c(=O)c(-c3ccccc3NC(C)=O)nc3ccccc32)cc1 (centres undefined)
  -24%	-13%
> COCCNC(=O)c1c(CSc2ccc(Cl)cc2)noc1C(=O)NCc1ccccc1
  i	-22%
> Cc1c(C(=O)N2CCC(C(=O)Nc3ccc(F)cc3)CC2)sc2nc[nH]c(=O)c12
  i	-13%
> COc1ccc(C2c3c(-c4ccccc4O)n[nH]c3C(=O)N2CCc2ccccc2)cc1 (centres undefined)
  -3%[7.34 µM]	-7%[7.34 µM]
> CC(C)Cn1c(CN2CCN(C(=O)c3ccco3)CC2)nc2c1c(=O)n(C)c(=O)n2C
  i	2%
> Cc1ccc2c(=O)cc(C(=O)Nc3nnc(CC(C)C)s3)oc2c1C
  -10%	4%
> CC(C)(C)NC(=O)COC(=O)CNC(=O)C1CCCCC1
  39%[activator]	-9%
> COc1ccc(-c2cc(C(F)(F)F)nc(SCC(=O)N3CC(C)OC(C)C3)n2)cc1OC (centres undefined)
  i	-6%
> CCC1CN(C(=O)Nc2ccc(C(=O)O)cc2)c2cc(Cl)ccc2O1 (centres undefined)
  -7%	-11%
> Cc1ccc([C@@H]2C[C@H]3[C@@H](CN2S(=O)(=O)c2ccc(Cl)cc2)C(=O)C[C@@H](c2ccccc2)N3S(=O)(=O)c2ccc(C)cc2)cc1
  i	-12%
> C[C@H](CO)N1C[C@H](C)[C@@H](CN(C)C(=O)c2ccccc2)OCc2cnnn2CCCC1=O
  i	-7%
> N#C/C(=C\c1cccc([N+](=O)[O-])c1)C(=O)NCc1cccnc1
  -12%	-4%
> Cc1ccc(NC(=O)N2CCc3cc(S(=O)(=O)N4CCC(C)CC4)ccc32)cc1C
  -13%	-15%
> Cc1cccc(CN2CCN(CC(=O)NCc3ccc(Cl)cc3)C2=O)c1
  -8%	-4%
> COc1cccc(-c2nc3c(C#N)c[nH]n3c2NC2CCCC2)c1OC
  ?	?
> CC(=O)N(CCC1(C(C)C)CCOC(C)(C)C1)C(C)c1cccs1 (centres undefined)
  i[7.34 µM]	-2%[7.34 µM]
> CCOc1ccc(N(Cc2ccc(OC)cc2)C(=O)c2ccco2)cc1
  i	-18%
> COc1ccc(NC(=O)NNC(=O)c2cc(C3CC3)nc3ccccc23)c(OC)c1
  i	-14%
> COc1ccc(NC(=O)COC(=O)CC2CCCC2)cc1
  -14%	-3%
> O=C(CCNC(=O)c1ccccc1Cl)NCCc1ccc(C(F)(F)F)cc1
  -8%	5%
> NC(=O)CC(NC(=O)c1ccccc1)c1ccc(NCCc2cccc(F)c2)c([N+](=O)[O-])c1 (centres undefined)
  -9%	-17%
> COc1ccc(NC(=O)c2sc3nc(C)nc(N4CCN(c5ccccn5)CC4)c3c2C)c(OC)c1
  i	-21%
> CCc1cc2c(SCC(=O)c3cccs3)ncnc2s1
  -2%	-14%
> COc1ccccc1/C=C/C(=O)c1ccc(NC(C)=O)cc1
  ?	?
> O=C(Nc1nnc([C@@H]2C[C@H](O)[C@@H](CO)O2)s1)c1cccc(OC(F)(F)F)c1
  34%[activator]	-12%
> CC(=O)N1CCCC(C(=O)c2ccc3c4c(cccc24)CC3)C1 (centres undefined)
  -11%	-21%

# One compound at a time (already shown). Values in the order: Vaccinia mCherry, VACV Venus inh
# `Cc1ccc(CNC(=O)c2c(-c3ccc(F)cc3F)noc2C)o1` reads -15%, 4%
# `COc1ccc(NC(=O)c2sc3nc(C)nc(N4CCN(c5ccccn5)CC4)c3c2C)c(OC)c1` reads i, -21%
# `C(#CCN1CCOCC1)COC/C=C/c1ccccc1` reads -7%, -10%
# `Cc1cc2c(=O)n(CC(=O)NCC(=O)N3CCN(Cc4ccccc4)CC3)cnc2s1` reads /, -4%

# Next part:
# Values in the order – Vaccinia mCherry	VACV Venus inh
> COc1cc(NC(=O)c2cccs2)c(C(=O)OCC(=O)NCc2ccco2)cc1OC
  /	-12%
> CCOC(=O)C1CCN(CC(=O)Nc2ccc(OC)c(S(=O)(=O)N3CCCCC3)c2)CC1
  -15%	-18%
> COC(=O)[C@@H]1CCCN1C(=O)c1c(OC)cc(=O)n2c1CCN(Cc1c(C)[nH]c3ccccc13)CC2
  -13%	-17%
> COc1cccc(C(=O)Nc2nc3c(s2)CN(C)CC3)c1
  /	-16%
> O=c1oc(-c2ccc(Br)cc2)nc2ccccc12
  0%	-7%
> CC(=O)Cc1nsc(Nc2ccc3c(c2)OCCO3)n1
  /	2%
> Fc1ccccc1-c1nc(-c2ccccc2)no1
  -11%	-2%
> Cc1cc2c(ncn2C)c(NS(=O)(=O)c2cc(Cl)ccc2Cl)c1C
  -8%	-21%
> CC(C)(C)N1C(=O)c2ccccc2NC(=O)C1C(=O)Nc1ccc2c(c1)OCCO2 (centres undefined)
  -17%	-5%
> Nc1nc(-c2cccnc2)nn1C(=O)Cc1ccccc1
  -15%	-25%
> CCCNC(=O)C1(C)CCCN(C(=O)c2cc(F)ccc2C)C1 (centres undefined)
  6%	2%
> CCS(=O)(=O)N1CCC(C(=O)NCc2ccccc2OC)CC1
  -9%	-8%
> CC(=O)c1ccc(Nc2nc(C(N)CCc3ccccc3)cs2)cc1 (centres undefined)
  ?	-20%
> C/C(=C\CO)CCC(C)CCCC(C)CCCC(C)C (centres undefined)
  -14%	-4%
> CCN(CC)S(=O)(=O)c1ccc(N2CCN(CCO)CC2)nc1
  -10%	-10%

# The listing continues.
structure,Vaccinia mCherry,VACV Venus inh
COc1cc(C(=O)c2ccc3c(c2)OCO3)cc(OC)c1OC,?,-15%
COc1ccc(CC2C(=O)N(C)C(=O)N(C)C2=O)c(OC)c1,-9%,-9%
CCC1=NN2C(=N)/C(=C\c3ccc(OCCOc4ccc(NC(C)=O)cc4)c(OC)c3)C(=O)N=C2S1,-2%,2%
Cc1cc(C(=O)COC(=O)c2ccc(F)cc2F)c(C)n1C1CC1,-13%,1%
CCCCN1C(=O)C(CC(=O)NCCc2ccccn2)CC(C(=O)N(C)C)=C1C (centres undefined),-11%,-26%
COc1ccc(NC(=O)c2cc(C3CCCCN3S(=O)(=O)c3ccc(F)cc3F)on2)c(C)c1 (centres undefined),i,-6%
CC(=O)c1sc(NCc2ccccc2)nc1C,i,-5%
Cc1nn(CCCC(=O)NCc2ccc(Cl)cc2)c(C)c1[N+](=O)[O-],i,-5%
Cc1c(NC(=O)C(C)OC(=O)/C=C/c2ccc(OC(F)F)cc2)c(=O)n(-c2ccccc2)n1C (centres undefined),-20%,-15%
O=C(NCCN1CCOCC1)c1ccc(CS(=O)(=O)c2ccc(Cl)cc2)o1,-11%[1.46 µM],-5%
CC(C)(C)C1(C)OC(=O)C(=Cc2ccc(OCC(=O)Nc3ccccc3)cc2)C(=O)O1 (centres undefined),-10%,?
Cn1c(SCC(=O)Nc2ccc3c(c2)n(C)c(=O)n3C)nnc1-c1ccncc1,-9%,-9%
COc1ccccc1C(=O)NCCC(=O)N(C)CC(=O)Nc1ccccc1Br,i,-11%
CS(=O)(=O)N1CCN(c2ccc([N+](=O)[O-])c(NCc3ccccc3)c2)CC1,/,?
Cc1cc2nc(CS)[nH]c2cc1C,?,?
COc1ccc2sc(-c3ccc(S(C)(=O)=O)cc3)c(C#Cc3cncn3C)c2c1,-23%,?
Cc1ccc(CSCCNS(=O)(=O)c2ccccc2)cc1,i,-17%
O=C(O)c1cc(-c2ccco2)nc2cc3ccccc3cc12,-13%[7.34 µM],-13%[7.34 µM]
CCCn1c2ccccc2c2cnn(CC(=O)NCC3CCN(Cc4ccc(C)cc4)CC3)c(=O)c21,-28%,-27%
COCCn1cnnc1SCC(=O)Nc1ccc(Br)cc1F,-6%,-13%
Clc1ccc(-c2nnn3c2nc(NCc2ccc4c(c2)OCO4)c2ccccc23)cc1,2%,6%
CSc1ccc(CNCC(O)c2ccccc2)cc1 (centres undefined),-4%,-9%
CCOc1ccc(CNS(=O)(=O)c2cc(-c3cc(C)no3)ccc2OC)cc1OC,-10%,0%
c1ccc(-c2cc(N3CCCCC3)ncn2)cc1,/,?

# Single values from the entries so far:
# For Vaccinia mCherry, CCOc1ccc(CNS(=O)(=O)c2cc(-c3cc(C)no3)ccc2OC)cc1OC is listed with -10%
# For VACV Venus inh, COc1ccccc1C(=O)NCCC(=O)N(C)CC(=O)Nc1ccccc1Br is listed with -11%
# For Vaccinia mCherry, COc1ccc2sc(-c3ccc(S(C)(=O)=O)cc3)c(C#Cc3cncn3C)c2c1 is listed with -23%

# Next part:
structure,Vaccinia mCherry,VACV Venus inh
CC(=O)/C(N=Nc1cc(C)ccc1O)=C(\C)O,-6%,2%
O=C1OCCC1Sc1nnc(-c2ccccc2Br)n1Cc1ccccc1 (centres undefined),i,-5%
Cc1ccc(-c2nc(CN3C(=O)CN=C(c4ccccc4)c4ccccc43)c(C)o2)cc1,-21%,-14%
CCc1cccc(C)c1NC(=O)c1nc2ccccc2nc1N1CCCCC1,-1%,4%
Cc1cccc(C)c1C(=NCCCN(C)C)c1ccccc1,-14%,-2%
CCN(CC)C(=O)c1[nH]cnc1C(=O)NCC(=O)OCc1ccccc1,i,0%
CN1CCN(c2cc3c(c4c2[nH]c2ccccc24)C(=O)CC(C)(C)C3)CC1,-29%,?
Cc1ccc2nc(-c3ccncc3)c(Nc3ccccc3)n2c1,-1%&-24%,-9%&12%
CN1C(C(=O)NCc2ccccc2)CC2Cn3c(nc4cc(Cl)c(Cl)cc43)C21 (centres undefined),-11%,-11%
CC(C)c1ccc(NC(=O)c2cc3c([nH]c2=O)CC(C)(C)CC3=O)cc1,22%,-4%
